Arbovirus inh: antivirals against arbovirus infection; arbovirus infection cell-based antiviral screen; inhibition, % at 10 µM; AID 1251; actives 0.37% (n = 200,000);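 active = inhibition from about 30%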;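 note: bluetongue infection of BSR cells; cell survival read as ATP light after 72 h; 0% = infected wells without compound and 100% = uninfected wells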
RecA splice inh: blocks M. tuberculosis RecA intein splicing. P9WHJ3. cell-free RecA intein splicing, fluorescence. inhibition, %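 (about 9 µM by stock and volumes)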. actives 0.75% (n = 290,000). AID 2221; in the data active = inhibition above about 30%; inconclusive = no clear call, values can overlap the other calls;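 note: 0% = vehicle wells and 100% = reference inhibitor control wells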
Target sequence (P9WHJ3 whole entry, looked up, canonical isoform): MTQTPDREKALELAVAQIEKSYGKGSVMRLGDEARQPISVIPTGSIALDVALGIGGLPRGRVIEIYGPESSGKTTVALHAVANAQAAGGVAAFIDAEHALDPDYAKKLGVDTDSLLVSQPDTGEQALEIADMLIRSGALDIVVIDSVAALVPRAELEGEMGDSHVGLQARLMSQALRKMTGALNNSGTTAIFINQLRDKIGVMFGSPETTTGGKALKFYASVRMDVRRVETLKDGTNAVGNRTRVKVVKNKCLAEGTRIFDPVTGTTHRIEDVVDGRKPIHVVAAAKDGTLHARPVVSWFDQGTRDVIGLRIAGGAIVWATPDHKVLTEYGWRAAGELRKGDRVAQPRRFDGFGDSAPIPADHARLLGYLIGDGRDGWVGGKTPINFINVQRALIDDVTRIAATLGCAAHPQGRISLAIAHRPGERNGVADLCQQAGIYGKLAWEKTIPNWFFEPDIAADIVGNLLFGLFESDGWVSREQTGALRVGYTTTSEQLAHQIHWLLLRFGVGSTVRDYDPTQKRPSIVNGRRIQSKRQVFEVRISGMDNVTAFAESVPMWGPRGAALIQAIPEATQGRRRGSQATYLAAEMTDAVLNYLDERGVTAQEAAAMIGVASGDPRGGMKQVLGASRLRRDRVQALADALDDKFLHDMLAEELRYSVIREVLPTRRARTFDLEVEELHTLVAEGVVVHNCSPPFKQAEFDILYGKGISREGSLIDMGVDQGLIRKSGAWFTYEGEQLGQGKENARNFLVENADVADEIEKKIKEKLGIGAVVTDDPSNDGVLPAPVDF
Mtb growth: M. tuberculosis H37Rv growth inhibitors, H37Rv strain (AID 1626); M. tuberculosis H37Rv growth inhibition; higher % means a stronger effect; inhibition, % at 10 µM, or IC50 in µM where a hit was titrated; actives 0.95% (n = 220,000);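 active = confirmed in a dose series; inconclusive = inhibition above 80% but not taken into the dose series; inactive = below 80% or under 30% at every dose of the series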;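 note: bacteria incubated seven days before Alamar blue readout; 0% = bacteria only wells and 100% = bacteria with antibiotic wells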
Mtb betalactam: beta-lactam sensitization of Mtb H37Rv; M. tuberculosis H37Rv growth with meropenem, percent inhibition; hits of this screen are not shown here; inhibition, % at 25 µM; actives 0.27% (n = 330,000);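 active = about 74% or more and at least 40 points above the plate without the antibiotic, then above 30% in a dose series; inconclusive = first-round hits that could not be retested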;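 note: growth measured after seven days incubation then overnight dye step; 0% = bacteria only wells and 100% = bacteria with antibiotic; twin plates without the antibiotic show which effects depend on it; some results filed as inactive read as strong as hits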
YopH inh: inhibitors of Yersinia enterocolitica YopH tyrosine phosphatase; inhibition, %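 (about 10 µM by stock and volumes)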; actives 0.16% (n = 140,000); fluorescence Ex485/Em525; AID 898;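 active = inhibition of 50% or more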;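 note: controls were vehicle for no effect and minimum signal wells for full effect; inactives centre near -20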
Arbovirus inh repeat: also measured in Arbovirus inh; calls as there; inhibition, %; measured here: 10K subset replicate screen; many hits read low in the repeat;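 first of two repeat runs on a subset; 0% = infected and 100% = uninfected wells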
The depositor's hits bear a star; u = inconclusive; x = not tested or not shown; & = joins results of further samples. This is a subset. The share of hits here may be higher or lower than overall.

SMILES	Arbovirus inh	RecA splice inh	Mtb growth	Mtb betalactam	YopH inh	others
O=c1c2cc(Cl)ccc2nc(-c2ccccc2Cl)n1O	5	0.2	-3%	3	x
CC1(C(=O)N2CC3(CC(c4cccc(NC(=O)COc5ccc(Cl)cc5)c4)=NO3)C[C@@H]2C(N)=O)CC1 (some centres not stated)	x	2.6	4%	-11	x
CC(=O)Nc1nc(C)c(-c2csc(Nc3ccccn3)n2)s1	-15	0.4&-4.3	-8%&-4%	-10&3	x
CN(Cc1ncc[nH]1)C(=O)c1cc(COc2c(F)cccc2F)on1	3	1.0	1%	2	x
N=c1c2ccccc2nnn1-c1ccc(C(F)(F)F)cc1	-5	-2.1	6%	5	x
CC(=O)Nc1ccc(C(=O)Nc2ccc3c(c2)OCO3)cc1	-16	4.3	1%	-12	-46
Nc1cc([N+](=O)[O-])cc2oc(-c3ccccc3)cc12	x	2.5	x	94	x
COc1cc(NC(=O)CCS(=O)(=O)c2ccc3c(c2)oc(=O)n3C)cc(OC)c1OC	x	1.0	x	-6	x
Cc1oc2c(c1C(=O)NC(Cc1c[nH]c3ccccc13)C(=O)O)CCCC2 (configuration not stated)	4	2.5	-10%	2	-8	Arbovirus inh repeat=-3
CCOc1ccc(NC(=O)Cn2cc(C(=O)C3CC3)c3ccccc32)cc1	x	0.0	x	3	x
CCN(CC)c1ccc(C(=S)NC2CCCCC2)cc1	6	5.0	3%	-10	x
c1ccc(COc2ccccc2CNCc2cccnc2)cc1	1	0.6	2%	-3	-15
CC(=O)c1ccc(Oc2cc(C)nc(NCc3ccccc3)n2)cc1	2	6.0	5%	3	-27
COc1cc(NC(=O)C2CCCN(S(=O)(=O)c3ccc4[nH]c(=O)ccc4c3)C2)cc(OC)c1 (configuration not stated)	x	-0.1	x	-2	x
CC(C)(C)OC(=O)CNC(=O)c1[nH]cnc1C(=O)N[C@@H](CCCCNC(=O)OC(C)(C)C)C(=O)OC(C)(C)C	x	-1.7	-5%	1	x
O=C(CN1CCN(c2ncc(C(F)(F)F)cc2Cl)CC1)N1CCN(c2ncc(C(F)(F)F)cc2Cl)CC1	-26	6.2	3%	100	-2
O=C(c1ccccc1)N1CCN(C(=O)c2ccncc2)CC1	x	-0.1	-8%	-1	-10
CC(=O)/C=N/Nc1ccccc1	-21	-0.5	6%	11	-25
CN(C)c1ccnc(-n2cccc2/C=N/O)c1C#N	8	x	2%	-6	x
O=C(Nc1ccc(Cl)cc1F)C1CC1	-5	0.1	5%	36	-14
CCCN1CCC(NC(=O)Nc2ccc([N+](=O)[O-])cc2)CC1	7	x	8%	-11	x
O=C(CNC(=O)c1ccco1)N/N=C/c1ccc(O)c([N+](=O)[O-])c1	3	-1.2	-3%	-7	21
NC(=O)c1cccc2c1C(=O)N(C1CCCCC1)C2	3	1.8	11%	-4	9	Arbovirus inh repeat=5
O=c1cc(O)nc2n1CCCS2	4	2.3	-2%	-4	-21
NNC(=S)NCc1cccnc1	-9	-3.8	-6%	-5	-31
COc1ccc(C(=O)NCc2nnc(SCC(=O)N3CCCCC3)o2)cc1	-6	-1.6	x	0	x
CNC(=O)CCc1[nH]c2ccccc2c1Sc1ccccc1	12	1.9	8%	-1	-13
COCCCNC(=O)Cn1cc(C(=O)c2cccs2)c2ccccc21	2	2.3	-11%	-3	-18
Cc1onc(-c2c(F)cccc2Cl)c1C(=O)OCN1C(=O)c2ccccc2C1=O	7	1.3	-16%	-10	-15
O=C(NC1CCCC1)C(c1ccc(N2CCOCC2)cc1)N(C(=O)c1ccco1)c1ccccc1F (configuration not stated)	-1	-2.0	6%	-1	x
CCc1nnc(NC(=O)Nc2ccc(OC)cc2)s1	2	0.9	-6%	0	-15
Cc1csc(NC(=O)c2ccncc2)n1	x	3.4	2%	-4	x
O=C(CCCCC(=O)N1CCOCCOCCOCC1)OCc1ccccc1	x	5.3	-2%	-2	x
CCOc1ccc(C(=O)Nc2ccccc2N2CCN(C(=O)c3ccccc3)CC2)cc1[N+](=O)[O-]	x	-2.1	x	-14	x
O=C(NC1c2ccccc2-c2ccccc21)N1CCOCC1	3	0.8	-6%	-2	-27
CCCCN(C(=O)c1cnc2n(c1=O)CCS2)c1ccccc1	0	-1.2	-3%	-9	-10
Cc1cccc(-c2c3c(=O)n(C)c(=O)n(C)c3cn2C(C)(C)C)c1	6	-0.3	-2%	21	-48
CC1CCCN(c2ccc([N+](=O)[O-])s2)C1 (configuration not stated)	11	-0.8	5.8µM*	x	x
CC1(C)NC(C(=O)O)Cc2c1[nH]c1ccccc21 (configuration not stated)	1	2.0	4%	-1	x
Fc1ccc(C2c3[nH]c4ccccc4c3CCN2CCCn2cccn2)cc1 (configuration not stated)	x	-17	10%	2	x
COc1cc(C(=O)Nc2ccccc2N2CCN(S(C)(=O)=O)CC2)cc(OC)c1OC	0	-0.3	-6%	0	-4
CC(=O)Nc1c(C)nn(C(C)=O)c1C	0	-2.6	-3%	0	-34
CC(C)COc1ccc(C/C(N)=N/n2cnnc2)cc1	13	-1.9	-4%	-7	x
O=C(OCC(=O)N(CCc1ccccc1)Cc1ccccc1)c1cccc(O)c1	x	9.2	x	-1	x
CC(Oc1ccc(Cl)cc1Cl)C(=O)NCCCN(C)C (configuration not stated)	-5	1.9	-11%	3	-40	Arbovirus inh repeat=0
O=c1[nH]c(CN2CCc3ccccc3C2)nc2ccccc12	8	-2.8	-2%	-2	-74
COc1ccc(/C=C(\C#N)C(=O)c2c(C)[nH]c3ccccc23)cc1OC	-8	7.9	-5%	2	-25
O=C(NNC1=C(C(=O)C(F)(F)F)CCC1)c1cccc(O)c1	-28	-3.8	1%	x	-32
CCOC(=O)c1c(C)n(C)c2cc(Br)c(C(=O)OC)cc12	11	-1.8	4%	27	-3	Arbovirus inh repeat=3
Cc1sc(NC(=O)c2cc(-c3ccccc3)nc3ccccc23)c(C(N)=O)c1C	13	-0.6	21%	63	-20
COc1ccccc1NC(=O)c1csc2c1CCC(C)C2 (configuration not stated)	-3	1.4	-2%	16	x
Cc1ccc(S(=O)(=O)N(CCC(=O)O)c2ccccc2)cc1	4	0.2	-9%	6	-26
Cc1ccc(Nc2nnc(SCc3nc4ccccc4c(=O)[nH]3)s2)cc1	-17	-0.2	1%	64	x
CCOC(=O)c1sc(NC(=O)c2ccc(S(=O)(=O)N(CC)CC)cc2)nc1C	-1	2.1	-6%	-1	-14
COC(=O)C1CCN(S(=O)(=O)c2ccc(NC(C)=O)cc2)CC1	8	-1.9	-8%	u	-24
CCOc1ccc(NC(=O)COC(=O)C2C3CC4OC(=O)C2C4C3)cc1 (configuration not stated)	x	0.6	x	-4	x
Cc1c(NC(=O)COC(=O)c2ccc(Br)o2)c(=O)n(-c2ccccc2)n1C	0	7.8	6%	1	x
Cc1nn(-c2ccccc2)c2ncc(C(=O)c3cc(Cl)ccc3O)cc12	7	2.8	12%	16	-30
COc1c(C)cc(Br)cc1C(=O)NC(=S)NCc1ccco1	x	11	x	8	x
CC1CCN(C(=O)CSc2nc3c(c(=O)n2C)SCC3)CC1	x	-0.1	x	2	x
Carrying on:
SMILES	Arbovirus inh	RecA splice inh	Mtb growth	Mtb betalactam	YopH inh	others
COc1ccc(C(=O)Nc2ccnn2C2CCN(Cc3ccccn3)CC2)cc1	x	-0.1	x	-5	x
CCc1ccc(N=C2NC(=O)/C(=C/c3cc(Br)c(OCC(=O)O)c(OC)c3)S2)cc1	x	24	x	-6	x
COc1ccc(CNc2c(C(=O)O)cnc3c2cnn3C)cc1	2	-0.7	0%	0	x
Cc1c(C(=O)Nc2cccc([N+](=O)[O-])c2)csc1-c1ccccc1	-8	1.0	x	5	2
O=C(CSc1ncn[nH]1)N1N=C2/C(=C/c3ccccc3)CCCC2C1c1ccccc1 (configuration not stated)	-12	0.9	7%	-2	-45
COc1ccc(F)cc1S(=O)(=O)NC(Cc1ccccc1)C(N)=O (configuration not stated)	-1	-1.8	x	-7	-24
CN(C)S(=O)(=O)c1ccc(NC(=O)c2ccncc2)cc1	-2	1.4	-4%	4	x
Cc1ccc(S(=O)(=O)Nc2ccc(C(=O)N3CCOCC3)cc2)cc1	x	-7.0	x	-4	x
O=C(Nc1cccc(-c2nnc(-c3ccccc3)o2)c1)C1CCCCC1	-3	0.4	-4%	-9	-9
CCOC(CNC(=O)c1cc(C)nn1-c1ccccc1)OCC	-2	-2.2	-1%	-13	-20
O=C(Nc1ccc(F)cc1)Nc1ccc2c(c1)OCO2	x	-3.5	x	-9	x
COc1ccc(S(=O)(=O)NCCSCc2ccco2)cc1Cl	4	4.3	-2%	-2	-23
CC(C)N(Cc1ccccc1)C(=O)COC(=O)c1cnccn1	2	-1.3	-3%	10	x
CCCN1CCc2c(sc(NC(=S)NC(=O)c3ccccc3)c2C#N)C1	-4	-8.0	0%	6	x
CC(C(N)=O)N1c2cccc3cccc(c23)S1(=O)=O (configuration not stated)	7	0.4	7%	0	x
Cc1cccc(OCc2nnc(SCC(=O)N3c4ccccc4CCc4ccccc43)o2)c1	x	12	12%	8	x
CN(C)c1ccc(/C=N\NC(=O)CC#N)cc1	7	-2.0	-4%	2	x
C(=N\c1ncnc2sccc12)/NOCc1ccccc1	11	1.6	8%	2	-40
CCCc1ccc(C(=O)CCC(=O)NNC(=O)c2ccncc2)cc1	x	3.0	x	97	x
O=C(CN1C(=O)COc2ccccc21)NCCCN1CCN(c2ccccc2F)CC1	x	-0.5	x	4	x
COc1ccc(-c2nc(CN3CCC(C(=O)N4CCOCC4)CC3)c(C)o2)c(OC)c1	x	-2.2	x	-4	x
CC1=NOC(=O)/C1=C\c1ccc(-c2cccc(Cl)c2)o1	-34	-0.6	42%	70	0
CC(=O)Nc1ccc(N2C(=O)c3ccc(S(=O)(=O)c4ccc(C(=O)O)cc4)cc3C2=O)cc1	x	-1.0	x	2	x
COc1ccc(OC)c(S(=O)(=O)Nc2ccc(C)c(C)c2)c1	7	-0.8	4%	-4	-12
CCN1CCN(CC(=O)Nc2cccc(C)c2)C(=O)C1=O	0	0.0	-2%	-2	-38	Arbovirus inh repeat=7
Nn1c(=O)c2ccccc2n2c(SCc3ccc(C(F)(F)F)cc3)nnc12	-10	7.1	-8%	-5	-15
CCOc1ccccc1C(=O)Nc1cccc(-c2ccc(N3CCOCC3)nn2)c1	x	1.2	x	9	x
COc1ccccc1NS(=O)(=O)c1cccc(C(=O)NCC(c2ccco2)N2CCCCC2)c1 (configuration not stated)	x	-0.2	x	-17	x
CCn1c(COC(=O)CNC(=O)c2ccccc2F)nc2cc(S(=O)(=O)N(C)C)ccc21	x	-3.7	x	1	x
CC1CCN(c2ccccc2NC(=O)c2ccc(N3CCOCC3)c([N+](=O)[O-])c2)CC1	-13	-1.9	-2%	3	-26

By substructure: the entries above containing fluorine (13)
SMILES	Arbovirus inh	RecA splice inh	Mtb growth	Mtb betalactam	YopH inh	others
CN(Cc1ncc[nH]1)C(=O)c1cc(COc2c(F)cccc2F)on1	3	1.0	1%	2	x
N=c1c2ccccc2nnn1-c1ccc(C(F)(F)F)cc1	-5	-2.1	6%	5	x
O=C(CN1CCN(c2ncc(C(F)(F)F)cc2Cl)CC1)N1CCN(c2ncc(C(F)(F)F)cc2Cl)CC1	-26	6.2	3%	100	-2
O=C(Nc1ccc(Cl)cc1F)C1CC1	-5	0.1	5%	36	-14
Cc1onc(-c2c(F)cccc2Cl)c1C(=O)OCN1C(=O)c2ccccc2C1=O	7	1.3	-16%	-10	-15
O=C(NC1CCCC1)C(c1ccc(N2CCOCC2)cc1)N(C(=O)c1ccco1)c1ccccc1F (configuration not stated)	-1	-2.0	6%	-1	x
Fc1ccc(C2c3[nH]c4ccccc4c3CCN2CCCn2cccn2)cc1 (configuration not stated)	x	-17	10%	2	x
O=C(NNC1=C(C(=O)C(F)(F)F)CCC1)c1cccc(O)c1	-28	-3.8	1%	x	-32
COc1ccc(F)cc1S(=O)(=O)NC(Cc1ccccc1)C(N)=O (configuration not stated)	-1	-1.8	x	-7	-24
O=C(Nc1ccc(F)cc1)Nc1ccc2c(c1)OCO2	x	-3.5	x	-9	x
O=C(CN1C(=O)COc2ccccc21)NCCCN1CCN(c2ccccc2F)CC1	x	-0.5	x	4	x
Nn1c(=O)c2ccccc2n2c(SCc3ccc(C(F)(F)F)cc3)nnc12	-10	7.1	-8%	-5	-15
CCn1c(COC(=O)CNC(=O)c2ccccc2F)nc2cc(S(=O)(=O)N(C)C)ccc21	x	-3.7	x	1	x

Screens (PubChem)
